Polio RdRp inh – inhibitors of poliovirus RNA polymerase binding and polymerization; % elongation, % (compound at 16.7 µg/mL); 150,000 compounds, 0.66% hits; poliovirus polymerase elongation, fluorescence polarization; stronger effect = lower value; P03300; in the data active = % elongation below about 90%; note: some results filed as inactive read as strong as hits
Target sequence (P03300 1749-2209 limits assumed): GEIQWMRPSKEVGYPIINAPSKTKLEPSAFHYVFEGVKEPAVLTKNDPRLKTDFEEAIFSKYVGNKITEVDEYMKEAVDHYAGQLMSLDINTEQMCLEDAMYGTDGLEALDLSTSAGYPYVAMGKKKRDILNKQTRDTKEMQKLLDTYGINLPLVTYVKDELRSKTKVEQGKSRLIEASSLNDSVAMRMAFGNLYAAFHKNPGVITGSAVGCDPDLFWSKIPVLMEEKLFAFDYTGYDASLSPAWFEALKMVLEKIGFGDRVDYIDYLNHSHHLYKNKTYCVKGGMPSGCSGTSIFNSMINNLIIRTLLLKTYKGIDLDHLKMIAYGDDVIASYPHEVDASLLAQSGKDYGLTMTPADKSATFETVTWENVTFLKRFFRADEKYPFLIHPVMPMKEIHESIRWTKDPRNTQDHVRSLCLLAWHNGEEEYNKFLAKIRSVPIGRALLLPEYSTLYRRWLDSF
Polio RdRp inh intensity – also measured in Polio RdRp inh; calls as there; % elongation; measured here: total intensity read-out; formula for this scale not given here;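 total fluorescence in place of polarization; lower means less elongation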
Active calls of the source: *. Some of the compounds tested. The share of hits here may be higher or lower than overall.

| entry | SMILES | Polio RdRp inh | Polio RdRp inh intensity |
| --- | --- | --- | --- |
| 1 | Cc1cc(C)c(S(=O)(=O)NCC(c2ccco2)S(=O)(=O)c2ccccc2)c(C)c1 (stereo not given) | 113 | 104 |
| 2 | Cc1cccc(N2CCN(c3ncnc4c3cnn4-c3ccc(Cl)cc3)CC2C)c1 (stereo not given) | 114 | 116 |
| 3 | Cc1cc(Cl)ccc1OCC(=O)N(Cc1ccco1)Cc1ccccc1F | 107 | 111 |
| 4 | Cc1ccc2c(c1)-c1c(cnn1CC(=O)N1CCN(c3ccccc3F)CC1)CO2 | 104 | 104 |
| 5 | COc1cc2ncc(C(=O)c3ccc(C)cc3)c(N3CCCCC3)c2cc1OC | 100 | 103 |
| 6 | COc1cc(NC(=O)c2noc3c2CCc2ccccc2-3)cc(OC)c1OC | 107 | 102 |
| 7 | COc1ccc(NC(=O)N2CCCn3nc(C)cc32)cc1OC | 103 | 101 |
| 8 | COc1ccc(-c2nc3c4ccccc4n(CC(=O)Nc4ccc(C(C)C)cc4)c(=O)n3n2)cc1 | 109 | 110 |
| 9 | Cc1ccc2c(CC(=O)Nc3c(C(=O)c4ccc(C)c(F)c4)oc4ccccc34)coc2c1 | 118 | 112 |
| 10 | CC(C)CC(=O)Nc1nnc(S(=O)(=O)N2CCCCCC2)s1 | 112 | 102 |
| 11 | Cc1ccc(NC(=O)CN2C(=O)C(c3ccccc3)=NC2(C)C)cc1C | 111 | 113 |
| 12 | O=C(CCS(=O)(=O)c1cc(Br)cc2c1N(C(=O)C1CC1)CC2)Nc1ccc(C(F)(F)F)cc1 | 104 | 106 |
| 13 | Cc1cccc(-n2nc(C)c3c2NC(=O)CSC3c2ccccc2Cl)c1 (stereo not given) | 104 | 110 |
| 14 | COc1cc(Cn2c(=O)sc3ccccc32)ccc1OCCC(C)C | 107 | 111 |
| 15 | CCc1ccc(CSc2nc(-c3ccc(OC)cc3)nc3c2Cc2c(CO)cnc(C)c2O3)cc1 | 102 | 101 |
| 16 | COc1cccc(N2CCN(C(=O)c3cc4c(=O)oc5ccc(C)cc5c4s3)CC2)c1 | 110 | 113 |
| 17 | CCCCOc1ccc(C(=O)Nc2ccc(-c3cc4ccccc4oc3=O)cc2)cc1 | 104 | 114 |
| 18 | CC(C)N(C(=O)Cn1cc(SCC(=O)Nc2ccccc2F)c2ccccc21)C(C)C | 120 | 120 |
| 19 | CCc1ccc(-n2nc(CO)c(C(=O)NCc3ccccc3OC)n2)cc1 | 112 | 113 |
| 20 | COc1ccc2c(c1)c(N1CCCC1=O)c(C(=O)Nc1ccc(Cl)cc1C)n2C | 110 | 101 |
| 21 | CCOc1ccc(-c2ccc(NS(=O)(=O)c3ccc(C)cc3)cc2)nn1 | 107 | 104 |
| 22 | Cc1ccc(N2CC(NC(=O)/C=C\c3ccc4c(c3)OCO4)CC2=O)cc1C (stereo not given) | 110 | 98 |
| 23 | CCC(C(=O)NCCc1ccc(Cl)cc1)n1nc(C)c2c(C)n(-c3ccccc3)nc2c1=O (stereo not given) | 99 | 103 |
| 24 | CCOc1ccc2nc(NC(=O)c3nc(SCc4ccc(C)cc4)ncc3Cl)sc2c1 | 111 | 110 |
| 25 | CCS(=O)(=O)N1CCc2cc(C(=O)Nc3cccc(C)c3C)ccc21 | 104 | 112 |

Next part:
| entry | SMILES | Polio RdRp inh | Polio RdRp inh intensity |
| --- | --- | --- | --- |
| 26 | Cc1ccc(-n2c3nc(=O)n(C)c(=O)c-3cc3ccccc32)c(C)c1 | 106 | 106 |
| 27 | Fc1ccc(N2CCN(c3ncnc4c3nc3n4CCCC3)CC2)cc1 | 106 | 104 |
| 28 | CCOC(=O)c1oc2ccc(S(=O)(=O)n3nc(-c4ccc(C)cc4)cc3N)cc2c1C | 106 | 105 |
| 29 | CC(C)CNc1nc(Oc2ccc(OCC(N)=O)nn2)nc(N2CCOCC2)n1 | 103 | 103 |
| 30 | CC(C)(C)OC(=O)N1CCC(c2c(C(=O)N3CCC(c4ccccc4)C3)cnn2-c2cccc(Cl)c2)CC1 (stereo not given) | 109 | 94 |
| 31 | Cc1cccc(NC(=O)C2CCCN(S(=O)(=O)c3cnc[nH]3)C2)c1C (stereo not given) | 101 | 102 |
| 32 | Cc1ccccc1OCC(=O)Nc1c(C)ccc2nsnc12 | 103 | 105 |
| 33 | CCc1ccccc1NC(=O)NC(CC)Cn1nnc2ccccc2c1=O (stereo not given) | 108 | 108 |
| 34 | COc1ccc2c(Sc3ccc(Cl)cc3)c(C(=O)NCCCN3CCCCC3)[nH]c2c1 | 101 | 102 |
| 35 | COC(=O)c1ccc(NC(=O)c2cc(S(=O)(=O)N3CCOCC3)cn2C)cc1 | 104 | 104 |
| 36 | COc1ccc(N2CCN(C(=O)c3c(C)oc4ncn(CC(C)C)c(=O)c34)CC2)cc1 | 106 | 103 |
| 37 | Cc1ccc(C)c(N2CCN(S(=O)(=O)c3cc(Br)cc4c3N(C(=O)C3CC3)CC4)CC2)c1 | 108 | 104 |
| 38 | C=Cc1ccc(CSc2nc(-c3ccccc3C)nc3c2Cc2c(CO)cnc(C)c2O3)cc1 | 111 | 115 |
| 39 | COc1ccc(N2CCN(c3oc(/C=C/c4ccccc4OC)nc3C#N)CC2)cc1 | 103 | 108 |
| 40 | c1csc(-c2nc3ccccn3c2Nc2ccc3c(c2)OCCO3)c1 | 107 | 109 |
| 41 | CCn1cc(C(=O)N2CCN(c3ccccc3OC)CC2)c2cc(OC)c(OC)cc2c1=O | 108 | 100 |
| 42 | CC(=O)c1ccccc1OCC(O)Cn1c(CO)nc2ccccc21 (stereo not given) | 100 | 106 |
| 43 | Cc1nn2c(=O)cc(COC(=O)c3cccc(NC(=O)COc4ccccc4C)c3)nc2s1 | 104 | 109 |
| 44 | CCCCN(CC)C(=O)CCCn1c(=O)c2cccn2c2ccccc21 | 110 | 117 |
| 45 | O=C(Nc1ccc(Cl)cc1C(F)(F)F)c1cc(S(=O)(=O)N2CCOCC2)ccc1F | 111 | 110 |
| 46 | CC1=C(C(=O)Nc2ccccc2)C(c2ccncc2)n2nc(SCc3ccccc3Cl)nc2N1 (stereo not given) | 98 | 100 |
| 47 | CCCCN(C)CCNC(=O)c1ccc2c(c1)NC(=O)CN2 | 105 | 98 |
| 48 | COc1ccccc1CNC(=O)COCc1cc(-c2cccs2)on1 | 108 | 113 |
| 49 | Cc1cccn2c(=O)c3cc(C(=O)NCc4ccccc4Cl)sc3nc12 | 105 | 108 |
| 50 | CCc1ccc(-c2[nH]c3c(c2-c2c(-n4cccc4)n(C)c(=O)n(C)c2=O)c(=O)n(C)c(=O)n3C)cc1 | 102 | 100 |

As entered above.
Reading for cpd 32 in Polio RdRp inh intensity: 105
Reading for cpd 48 in Polio RdRp inh intensity: 113

(more compounds)
| entry | SMILES | Polio RdRp inh | Polio RdRp inh intensity |
| --- | --- | --- | --- |
| 51 | COc1ccc(Cl)cc1NC(=O)CSc1nc2ccccc2c2nc(-c3ccccc3)nn12 | 110 | 111 |
| 52 | CCOc1ccc(NC(=O)c2oc(=O)c3ccccc3c2-c2ccc(C)cc2)cc1 | 102 | 107 |
| 53 | CCOc1ccc(-c2cc(NC(=O)Nc3ccc(Cl)cc3)c(C(=O)OC)s2)cc1 | 109 | 115 |
| 54 | Cc1ccc(S(=O)(=O)c2cc3cc(C(=O)O)ccc3oc2=O)cc1 | 113 | 107 |
| 55 | Cc1cc(C)n(-c2nc3cc(Cl)c(Cl)cc3nc2Nc2c(C)cccc2C)n1 | 107 | 109 |
| 56 | CC1=C(C#N)C(NC(=O)c2cccc(Cl)c2)(C(F)(F)F)C(=O)N1 (stereo not given) | 106 | 108 |
| 57 | CCOC(=O)Cn1c(=O)n(C2CCCCC2)c2nc(-c3ccccc3Cl)nc(C(N)=O)c21 | 108 | 109 |
| 58 | COc1cc2c(=O)n(CCC(=O)NCC3CCCO3)c(=O)n(CC(=O)Nc3ccc(F)cc3)c2cc1OC (stereo not given) | 104 | 97 |
| 59 | Clc1cccc(-n2ncc3c(NCCC4=CCCCC4)ncnc32)c1 | 104 | 110 |
| 60 | Cc1ccc(NC(=O)CSc2nccn2Cc2ccc3c(c2)OCO3)c(C)c1 | 112 | 111 |
| 61 | COc1ccc(NC(=O)CSc2nc(C)cc(C)c2C(=O)Nc2cccc(C)c2)cc1 | 104 | 98 |
| 62 | Cc1ccccc1N1CC(c2nnc(NC(=O)c3ccco3)s2)CC1=O (stereo not given) | 82* | 87* |
| 63 | CCOCCCNC(=O)c1cn(CC(C)C)c(=O)c2c1c1ccccc1n2C | 110 | 114 |
| 64 | CC(=O)N1c2ccc(S(=O)(=O)N3CCCCCC3)cc2CC1C(=O)NCc1ccc(Cl)cc1 (stereo not given) | 105 | 108 |
| 65 | COc1ccc(-n2c3c(cc(-c4nc(-c5ccc(Cl)cc5)cs4)c2=O)C(=O)CC(C)(C)C3)cc1Cl | 106 | 108 |
| 66 | Cc1cc(C)cc(NC(=O)NCCn2nnc3cc(S(=O)(=O)N(C)C)ccc32)c1 | 105 | 96 |
| 67 | COc1ccccc1NC(=O)CSC1=Nc2ccccc2C2=NC(CC(=O)NCc3ccco3)C(=O)N12 (stereo not given) | 100 | 83 |
| 68 | Cc1ccc(OCC(=O)N2CCN(Cc3ccc(F)cc3)CC2)cc1 | 100 | 97 |
| 69 | Cc1ccc(-c2csc(=Nc3ccccc3)n2Cc2ccc3c(c2)OCO3)cc1 | 104 | 102 |
| 70 | CCN(CC)CCNC(=O)c1ccc(-c2nc(CN3CCc4ccccc43)c(C)o2)cc1 | 101 | 105 |
| 71 | Cc1cccc(NC(=O)CSc2cn(CC(=O)N3CCCCCC3)c3ccccc23)c1 | 108 | 103 |
| 72 | COc1cccc(C(=O)Nc2ccc3nc(SCc4ccc(C)cc4)sc3c2)c1 | 111 | 106 |
| 73 | CC(C)c1ccc(OC(=O)c2cc(-c3ccc(Cl)cc3)on2)cc1 | 100 | 106 |
| 74 | CCN(CC)CCN(C(=O)c1ccco1)c1nc2c(C)c(C)ccc2s1 | 92 | 99 |
| 75 | CCOc1ccccc1N(C)C(=O)c1nn(-c2ccc(C)cc2)c(=O)c2c1c1ccccc1n2C | 111 | 103 |

Molecules shown so far that have a cyano group, in the order listed:
| entry | SMILES | Polio RdRp inh | Polio RdRp inh intensity |
| --- | --- | --- | --- |
| 39 | COc1ccc(N2CCN(c3oc(/C=C/c4ccccc4OC)nc3C#N)CC2)cc1 | 103 | 108 |
| 56 | CC1=C(C#N)C(NC(=O)c2cccc(Cl)c2)(C(F)(F)F)C(=O)N1 (stereo not given) | 106 | 108 |

Part of the list above in order of count of non-hydrogen atoms, falling.
| entry | SMILES | Polio RdRp inh | Polio RdRp inh intensity |
| --- | --- | --- | --- |
| 58 | COc1cc2c(=O)n(CCC(=O)NCC3CCCO3)c(=O)n(CC(=O)Nc3ccc(F)cc3)c2cc1OC (stereo not given) | 104 | 97 |
| 67 | COc1ccccc1NC(=O)CSC1=Nc2ccccc2C2=NC(CC(=O)NCc3ccco3)C(=O)N12 (stereo not given) | 100 | 83 |
| 51 | COc1ccc(Cl)cc1NC(=O)CSc1nc2ccccc2c2nc(-c3ccccc3)nn12 | 110 | 111 |

More records follow.
| entry | SMILES | Polio RdRp inh | Polio RdRp inh intensity |
| --- | --- | --- | --- |
| 76 | CCOC(=O)c1c(S(=O)(=O)N2CCCC(C(=O)Nc3cccc(C)n3)C2)c(C)n(C)c1C (stereo not given) | 106 | 99 |
| 77 | CCn1c(C)c(C)c2cc(C(=O)NCc3ccc(OC(C)C)cc3)ccc21 | 108 | 103 |
| 78 | CCN1CCN(C(c2ccc(OC)cc2)c2c(O)cc(C)n(CCOC)c2=O)CC1 (stereo not given) | 101 | 105 |
| 79 | COc1c(Cl)cc(Cl)cc1/C=C(\C#N)c1nc(-c2ccc(Cl)cc2)cs1 | 97 | 109 |
| 80 | CCCc1cnc2c(c1SCC(=O)Nc1ccc(C)c(Cl)c1)c(=O)n(C)c(=O)n2C | 96 | 101 |
| 81 | COc1cccc(CNC(=O)CC(c2ccc(F)cc2)N2Cc3ccccc3C2=O)c1 (stereo not given) | 106 | 109 |
| 82 | Cc1cc(C)c(NC(=O)C(C)n2c(=O)c(C(F)(F)F)nc3ccccc32)c(C)c1 (stereo not given) | 104 | 111 |
| 83 | CCOC(=O)CSc1nc2cc(OC)c(OC)cc2c2nc(-c3ccccc3)nn12 | 103 | 107 |
| 84 | O=C(CN1CCN(c2ccc(Cl)cc2)CC1)Nc1ccc(F)cc1F | 113 | 111 |
| 85 | NC(=O)c1cc(S(=O)(=O)NCc2ccccc2)cs1 | -12* | 16* |
| 86 | COc1ccc(-c2cn3c(n2)sc2cc(C(=O)NCCc4ccccc4)ccc23)cc1 | 102 | 94 |
| 87 | CCCCOc1ccc(C2c3c(-c4ccccc4O)n[nH]c3C(=O)N2Cc2ccncc2)cc1OC (stereo not given) | 102 | 111 |
| 88 | CCOC(=O)c1cnc2c(ccc3ccccc32)c1Nc1ccccc1OC | 107 | 109 |
| 89 | CCCCn1c(=O)c2oc3ccccc3c2n(CC(=O)Nc2cccc(Cl)c2)c1=O | 103 | 106 |
| 90 | Clc1cccc(-n2ncc3c(NCCc4ccccc4)ncnc32)c1 | 112 | 119 |
| 91 | O=C1C(=O)N(C2CCNCC2)CCN1Cc1ccccc1 | 107 | 111 |

Values by screen from the list.
Polio RdRp inh, compounds 81 to 85, in order: 106, 104, 103, 113, -12*

Bioassay records: PubChem BioAssay, ICCB-Longwood Screening Facility, Harvard Medical School
